Bioassay records as filed in PubChem BioAssay.
A647 fluor – qHTS Assay for Spectroscopic Profiling in A647 Spectral Region. Compound fluorescence, A647 channel (570/671 nm), Tris buffer. max dye-equivalent concentration, M. 59,000 tested, under 10 active. AID 592, 2007; active means above 1 µM dye equivalent; inconclusive means 0.1 to 1 µM; inactive means 0.1 µM or less;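 note: values scaled relative to a standard on each plate; highest value over a series up to 38 µM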
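Compounds pinned into 100 mM Tris pH 8.0, 15 min at room temperature, then read with 570 nm excitation/671 nm emission filters. Fluorescence normalized to an on-plate six-point Alexa 647 standard curve, giving dye-equivalent concentration per compound concentration.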
TSHR ag – qHTS Assay for Agonists of the Thyroid Stimulating Hormone Receptor; Thyrotropin receptor (Homo sapiens), P16473; HEK293-CNG-TSHR cells (CNG channel as cAMP sensor), membrane potential dye, cAMP; 73,000 compounds, 0.48% hits; Potency, µM (series often up to 57.1 µM), for inactives: top-dose activation, usual class: activators; active = well fitted activation curve of enough size with the parental cells flat; inconclusive = any curve in the parental cells; inactive = parental cells flat and receptor cells flat or falling; note: potency is the fitted concentration of half-maximal effect; % of control where 0% means no effect; weak receptor curves with flat parental cells got no call and are not listed
Target sequence (P16473 whole entry, looked up): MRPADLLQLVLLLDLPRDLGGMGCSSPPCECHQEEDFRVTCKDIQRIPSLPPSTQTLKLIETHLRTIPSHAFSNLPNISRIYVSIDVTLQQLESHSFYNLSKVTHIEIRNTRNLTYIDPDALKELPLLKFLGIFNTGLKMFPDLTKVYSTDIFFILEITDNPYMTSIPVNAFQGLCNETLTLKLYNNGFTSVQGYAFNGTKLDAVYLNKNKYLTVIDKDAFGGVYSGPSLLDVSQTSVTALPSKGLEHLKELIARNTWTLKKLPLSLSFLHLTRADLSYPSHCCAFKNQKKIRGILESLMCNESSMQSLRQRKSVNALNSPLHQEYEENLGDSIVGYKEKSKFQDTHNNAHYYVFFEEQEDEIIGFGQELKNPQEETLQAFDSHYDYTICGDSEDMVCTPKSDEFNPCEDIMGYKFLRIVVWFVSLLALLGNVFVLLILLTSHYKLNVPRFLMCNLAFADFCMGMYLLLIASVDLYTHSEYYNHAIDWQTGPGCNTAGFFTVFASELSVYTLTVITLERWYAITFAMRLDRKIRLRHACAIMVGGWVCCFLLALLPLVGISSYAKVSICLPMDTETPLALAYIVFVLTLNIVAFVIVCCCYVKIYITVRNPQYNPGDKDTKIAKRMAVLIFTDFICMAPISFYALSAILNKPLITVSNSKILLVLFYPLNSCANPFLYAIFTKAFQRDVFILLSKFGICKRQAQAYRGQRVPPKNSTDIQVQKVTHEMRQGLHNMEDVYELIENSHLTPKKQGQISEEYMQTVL
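cAMP rise detected as CNG-channel membrane depolarization by fluorescent dye (emission 590 nm), 30 min after compound, following 60 min dye loading containing 100 uM RO 20-1724 at room temperature. Cells: TSHR/CNG HEK 293, with parental CNG HEK 293 as control.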
A488 fluor – qHTS Assay for Spectroscopic Profiling in A488 Spectral Region | compound autofluorescence, A488 spectral region, dye equivalency; stronger effect = higher value | max dye equivalency, M | 59,000 compounds, 0.1% hits; active = above 10 nM dye equivalent; inconclusive = 1 to 10 nM; inactive = 1 nM or less; about half of its hits are not listed in these tables;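 note: highest value over a series up to 38 µM; compound alone in buffer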
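Compounds pin-transferred into 100 mM Tris buffer, pH 8.0, incubated 15 min at room temperature, then imaged with 480 nm excitation/540 nm emission filters. Fluorescence converted to Alexa 488 dye-equivalent concentration via an on-plate six-point A488 standard curve.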
AID923 – qHTS Assay for Allosteric/Competitive Inhibitors of Caspase-1: Spectroscopic Profiling in AFC Spectral Region; compound fluorescence, AFC spectral region (405/520 nm); almost no hit is shown here; Potency, µM (series often up to 57.5 µM), without a hit: at the top dose fluorescence increase, hits mostly activators; 75,000 compounds, 1.1% hits; active = well fitted activation curve with a large enough effect; inconclusive = small, poorly fitted or top-dose-only effect;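 note: potency is the fitted concentration of half-maximal effect; 0% is about no effect; scaled to a free AFC standard on each plate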
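Compound autofluorescence profiled at 405 nm ex/520 nm em during kinetic caspase 1 run (50 nM enzyme, 5 uM Ac-WEHD-AFC, HEPES pH 7.5, 10 mM DTT). Titration up to 57 uM; baseline from regression intercept, normalized to AFC standard curve.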
Resorufin autofl – qHTS Assay for Spectroscopic Profiling in Resorufin Spectral Region; Compound fluorescence, resorufin region 547/598 nm, buffer; stronger effect = higher value; max dye-equivalent concentration, M; 59,000 compounds, 0.04% hits; active = above 10 nM dye equivalent; inconclusive = 1 to 10 nM; inactive = 1 nM or less; a few of its hits are not listed in these tables; note: highest value over a series up to 38 µM
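Read-out: intrinsic compound fluorescence at ex 547/em 598 nm after 15 min at RT in pH 8.0 Tris (100 mM). Values expressed as resorufin-equivalent concentration from per-plate standard series.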
Active calls of the source: *; i = inactive; ? = inconclusive; . = no result given; [ ] = remark or other dose. Only part of the results is shown; the hit share may differ from the screen's.

The line under a structure holds: A647 fluor, TSHR ag, A488 fluor, AID923, Resorufin autofl
> CCCOc1ccc(/C(O)=C2/C(=O)C(=O)N(CCN(CC)CC)C2c2ccncc2)cc1 (stereo not given)
    1e-09, -4%, i, -0.6%, i
> COc1ccc(C(c2nnnn2CCc2ccccc2)N2CCN(C3CCCC3)CC2)cc1 (stereo not given)
    1e-09, 20%, i, -1.7%, i
> COc1ccc(C2C(C#N)=C(N)OC3=C2C(=O)CC(C)(C)C3)c(OC)c1OC (stereo not given)
    ., 7%[11.4 µM], ., 0.0%, .
> Cc1cc(C)c(-c2cc([C@H](C)O/N=C\[C@@H](C)[C@H](OCc3ccccc3)C(C)C)on2)c(C)c1
    ., 22%[11.4 µM], ., 0.0%[11.5 µM], .
> Cc1nnc(SCc2cc(=O)[nH]c(N3CCCCC3)n2)s1
    1e-09, 3%, i, -0.5%, i
> Cc1cccc(N/C(N)=N/c2nc3c(c(=O)[nH]2)CCCC3)c1
    2.9e-08, 1%, i, -1.4%, i
> COC(=O)c1ccc(NC(=O)CSc2nnc(C)n2-c2ccccc2)cc1
    1e-09, -3%, i, -3.2%, i
> CCN1C(=O)CS/C1=C(\C#N)S(=O)(=O)c1ccccc1
    1e-09, -14%, i, 1.6%, i
> O=C(Nc1ccc2c(c1)OCO2)C1CCCN(S(=O)(=O)c2cccs2)C1 (stereo not given)
    2e-09, 2%, i, 0.7%, i
> CCOC(=O)CCCOC(=O)c1ccc(S(=O)(=O)N(C)C)cc1
    5.4e-09, -6%, i, -1.9%, i
> COc1ccc(NC(=O)C2(N(CC(C)C)C(=O)Cn3nnnc3N)CCCCC2)cc1
    2.1e-09, 3%, i, 0.7%, i
> CCOC(=O)N1CCN(C(=O)c2cn(C)c3ccc(S(=O)(=O)N4CCCC4)cc3c2=O)CC1
    2.1e-08, -2%, i, -0.8%, i
> N#CCSc1nc2c(c(C3CC=CCC3)c1C#N)CCC2 (stereo not given)
    8.9e-09, ?, i, 0.8%, i
> O=C(NCCOc1ccc(Cl)cc1)C1CC(=O)N(c2ccc(F)cc2)C1 (stereo not given)
    ., 8%[11.4 µM], ., 1.6%, .
> Cn1cccc1C(=O)Nc1nccs1
    1.8e-09, 0%, i, -1.4%, i
> CCOC(=O)c1cn(CC)c2ccc(Br)cc2c1=O
    1.6e-08, 5%, i, 0.9%, i
> c1ccc(CN2CCN(c3ncnc4nc[nH]c34)CC2)cc1
    ., 8%, ., -1.1%, .
> Cc1cc(=O)oc2cc(OCC(=O)OCC(=O)NCc3ccc4c(c3)OCO4)ccc12
    1.1e-08, 1%, i, 0.5%, i
> CC(=O)C1=C(C)Nc2cc(C(F)(F)F)ccc2S1
    ., -11%, ., -1.1%, .
> Cn1c(=O)c2[nH]c(COCc3nc4c([nH]3)c(=O)n(C)c(=O)n4C)nc2n(C)c1=O
    1e-09, -1%[11.4 µM], i, -1.1%[11.5 µM], i

(next part)
The line under a structure holds: A647 fluor, TSHR ag, A488 fluor, AID923, Resorufin autofl
> O=C(CN(Cc1ccco1)C(=O)CNS(=O)(=O)c1ccccc1)NCc1ccc(F)cc1
    1.9e-08, ?, i, -2.3%, i
> Cc1ccc2c(nc3s/c(=C/c4cccs4)c(=O)n32)c1C
    ., 3%, ., 5.1%, .
> COC(=O)c1ccccc1NC(=O)c1ccc2c(c1)C(=O)N(Cc1ccco1)C2=O
    5.8e-09, -6%, i, -1.2%, i
> O=C(c1ccncc1)N1CCC[C@@]2(CCN(c3ccncc3)C2)C1
    6.6e-09, ?, i, 2.5%, i
> CC1CCN(C(=O)CSc2nnc(CN3CCOCC3)n2-c2ccccc2)CC1
    5.9e-09, 2%, i, -0.6%, i
> O=S(=O)(c1ccccc1)N1CCN(c2cc(-c3ccccc3)nc3ncnn23)CC1
    1e-09, ?, i, 1.3%, i
> CCSC1=C(C#N)C2(CCCC2)C(C#N)=C(N)N1
    4.5e-09, -9%, i, -0.3%, i
> O=C(NC1CCCCC1)N1CCC(c2nc(-c3ccc(S(=O)(=O)N4CCCC4)cc3)no2)CC1
    2.6e-09, ?, i, 1.0%, i
> Cc1ccc2c(c1)N(CCCC(=O)NCc1cccnc1)C(=O)CO2
    ., 4%, ., 1.7%, .
> O=CN[C@@H](Cc1cnc[nH]1)C(=O)O
    2.3e-08, 0%[11.4 µM], i, -3.5%[11.5 µM], i
> O=C(CSc1nc2ccccc2o1)N1CCN(c2ccccc2)CC1
    1.9e-08, ?, i, -1.2%, i
> COc1cccc(-c2nnc(SCC(=O)Nc3ccc(OC)c(OC)c3)n2N)c1
    5.8e-09, ?, i, 4.0%, i
> CCc1cc2c(=O)c(Oc3ccccc3)c(C)oc2cc1O
    ., -1%, ., 18%, .
> C=CCOC(=O)C(C(C)=O)C(NC(=O)OC)c1ccccc1 (stereo not given)
    ., 0%[11.4 µM], ., 2.7%[11.5 µM], .
> Cc1c(NC(=O)c2cc(-c3ccccc3)on2)c(=O)n(-c2ccccc2)n1C
    2.7e-09, 6%, i, 3.4%, i
> O=C(CC1NC2CCCCC2NC1=O)Nc1cccc(C(F)(F)F)c1 (stereo not given)
    2.9e-08, 2%, i, -1.6%, i
> Cc1ccc(S(=O)(=O)NC(C(=O)OCC(=O)NC2CCS(=O)(=O)C2)C(C)C)cc1 (stereo not given)
    1.1e-08, 1%[11.4 µM], i, -0.8%, i
> Cc1c(-c2ccc(F)cc2)nc(N)c(C#N)c1-c1ccco1
    5.4e-09, 2%, i, 6.2%, i
> CCOC(=O)C1CCN(C(=O)c2oc3ccc(S(=O)(=O)N4CCCCCC4)cc3c2C)CC1
    5.2e-09, ?, i, -0.2%, i
> CCOc1ccc(C2CC(c3ccc(OC)c(OC)c3)n3nc(N)nc3N2)cc1 (stereo not given)
    ., ?, ., 1.8%, .

Pulled one by one from the entries so far, three records:
The line under a structure holds: A647 fluor, TSHR ag, A488 fluor, AID923, Resorufin autofl
> CCOC(=O)C1CCN(C(=O)c2oc3ccc(S(=O)(=O)N4CCCCCC4)cc3c2C)CC1
    5.2e-09, ?, i, -0.2%, i
> C=CCOC(=O)C(C(C)=O)C(NC(=O)OC)c1ccccc1 (stereo not given)
    ., 0%[11.4 µM], ., 2.7%[11.5 µM], .
> O=S(=O)(c1ccccc1)N1CCN(c2cc(-c3ccccc3)nc3ncnn23)CC1
    1e-09, ?, i, 1.3%, i

The list continues:
The line under a structure holds: A647 fluor, TSHR ag, A488 fluor, AID923, Resorufin autofl
> O=C(CCCN1C(=O)CSc2ncccc21)N1CCN(Cc2ccccc2)CC1
    ., 1%, ., -2.3%, .
> CC(=O)N1CC2(C)CN(C(C)=O)CC(C)(C1)C2=O
    ., 0%, ., 2.4%, .
> CC(C)c1nc(=S)c2ccccc2[nH]1
    2.5e-08, 0%, i, 0.0%, i
> O=C(CN1C(=O)COc2ccccc21)N1CCN(c2ccccc2F)CC1
    1.4e-08, 4%, i, 0.5%, i
> Cc1ccccc1-c1nc(-n2ccnc2)c2ccccc2n1
    1.6e-08, 21%, i, -0.1%, i
> COCCn1c(=O)[nH]c2cc(C(=O)NCC3CCCO3)ccc2c1=O (stereo not given)
    6.7e-09, 8%, i, 0.2%, i
> CCCCOc1ccc(CN2CCC(O)CC2)cc1
    ., 16%, ., 4.1%, .
> CCN(CC)S(=O)(=O)c1ccccc1/C=N\O
    1e-09, 2%, i, 0.2%, i
> O=C(O)c1ccc(NS(=O)(=O)c2cc(C(=O)O)ccc2Br)cc1
    ., -1%, ., 3.5%, .
> O=C(NCc1ccccc1Cl)C1CCCN(S(=O)(=O)c2cnc[nH]2)C1 (stereo not given)
    ., -2%, ., 2.7%, .
> Cc1onc(-c2c(F)cccc2Cl)c1C(=O)Nc1nnc(C2CC2)s1
    3.6e-09, -4%, i, -1.6%, i
> CCOC(=O)CSc1n[nH]c(-c2ccco2)n1
    ., -1%, ., 0.2%, .
> COc1ccc(-n2c(Cc3cc(=O)[nH]c(=O)[nH]3)nnc2SCc2ccccc2)cc1
    ., 2%, ., -1.6%, .
> Cc1ccc(C)n1NC(=O)c1ccccc1Cl
    1e-09, 9%, i, 0.1%, i
> CCCCn1c(=O)c(C(=O)OCC)c(O)c2ccccc21
    1.3e-08, 15%, i, -1.5%, i
> Cc1nnc(NC(=O)Nc2cccc(Cl)c2)s1
    3.7e-09, -7%, i, 1.8%, i
> COC(=O)c1cn(C(=O)OC)c2ccccc12
    1e-09, 3%, i, 0.5%, i
> Cc1nn(C(=O)c2cccnc2)c(C)c1C
    1e-09, ?, i, 0.5%, i
> CN(C)c1ccc(P(=O)(OCc2ccccc2)C(O)c2cccnc2)cc1 (stereo not given)
    1.7e-09, 23%, i, -1.1%, i
> COC(=O)c1sc(NC(=O)c2ccoc2C)nc1C
    2.8e-08, -6%, i, -2.6%, i

Continuation:
The line under a structure holds: A647 fluor, TSHR ag, A488 fluor, AID923, Resorufin autofl
> CC(C)(Oc1ccc(-c2cccc3ccccc23)cc1)C(=O)O
    2.9e-08, 17%[11.4 µM], i, 4.4%[11.5 µM], i
> COc1ccc(OCC(O)Cn2c(Br)nc3c2c(=O)[nH]c(=O)n3C)cc1 (stereo not given)
    2.4e-08, -3%, i, 6.5%, i
> COc1ccc(NC(=O)C2CC(=O)N(c3cccc(C)c3C)C2)cc1 (stereo not given)
    1.2e-08, 0%, i, 0.7%, i
> OCCN1CCN(c2ncnc3ccc(Br)cc23)CC1
    ., -3%, ., -1.4%, .
> CC1=C(C(=O)OCc2ccccc2)C(c2ccc(C3CCCCC3)cc2)NC(=O)N1CCCCCC(=O)O (stereo not given)
    ., ?, ., -2.5%, .
> CCn1c(COc2ccccc2C)nnc1SCC(=O)CC(=O)Nc1ccccc1
    1.6e-09, ., i, 0.8%, i
> O=C(Cc1cccs1)NCc1cccs1
    2.2e-08, -2%, i, -0.9%, i
> COc1ccccc1CN1CCC2(CC1)CCN(C(=O)c1csnn1)CC2
    2.4e-08, 2%, i, -0.2%, i
> COCCNC(=O)CN1C(=O)COc2ccc(Cl)cc21
    ., 6%, ., -2.1%, .
> COc1ccc(C2CC(O)(C(C)(C)O)NO2)cc1 (stereo not given)
    1.7e-09, -1%, i, -0.9%, i
> COc1ccc(C2(O)CCN(CCCCOc3ccccc3)CC2)cc1
    3.7e-08, 13%, i, 3.9%, i
> COC(=O)c1ccccc1NC(=O)N1CCN(C/C=C/c2ccccc2)CC1
    4.6e-09, 26%, i, 3.4%, i
> CCC(Sc1nc(=O)cc(N)n1-c1ccccc1)C(=O)Nc1cc(C)on1 (stereo not given)
    ., -9%[11.4 µM], ., -2.7%, .
> COCCn1c(C(=O)N(C)C)cc2c1C[C@H]1CN(C(=O)c3ccccc3)[C@@](Cc3ccc(F)cc3)(C(=O)OC)[C@@H]21
    ., ?, ., 0.5%, .
> Cc1cc(C)n(Cc2ccccc2Cl)n1
    1.6e-08, -3%, i, -2.7%, i
> O=C(CN1CCOc2ccccc21)NCc1ccco1
    ., 1%, ., 0.6%, .
> CC(C)n1c(SCC(=O)Nc2ccccc2N2CCCCC2)nc2c1c(=O)n(C)c(=O)n2C
    1e-09, ?, i, 1.2%, i
> CCOc1ccc(NC(=O)N2CC=C(n3c(=O)[nH]c4ccccc43)CC2)cc1
    3e-08, ?, i, 0.7%, i
> CCOc1ccc(C2CC(c3ccc(Br)cc3)Nc3nc(N)nn32)cc1 (stereo not given)
    1e-09, -61%[inhibitor], i, -0.2%, i
> O=C1C=CCCC1
    ., -9%, ., 1.4%, .
> CCOc1nc(C)ccc1-c1noc(-c2ccncc2)n1
    1.4e-08, 13%, i, -0.6%, i
> O=C(Nc1cccnc1)c1cccc(S(=O)(=O)N2CCOCC2)c1
    1e-09, 3%, i, 1.3%, i
> Cc1cc(NC(=O)CSc2ccc3c(c2)OCCO3)no1
    1e-09, 16%, i, 0.5%, i
